CBX7 inh: inhibitors of human CBX7 binding to H3K27me3 peptide. AlphaScreen His6-CBX7 / biotin-H3K27me3 peptide binding; active compounds read low. 66,000 compounds, 1.1% hits. AID 1224903. O95931. normalised signal (fraction of DMSO) (no concentration beside the values); in the data active = normalised signal below about 0.5;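 note: 100 nL library stock added to about 20 µL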
Target sequence (O95931 whole entry, looked up): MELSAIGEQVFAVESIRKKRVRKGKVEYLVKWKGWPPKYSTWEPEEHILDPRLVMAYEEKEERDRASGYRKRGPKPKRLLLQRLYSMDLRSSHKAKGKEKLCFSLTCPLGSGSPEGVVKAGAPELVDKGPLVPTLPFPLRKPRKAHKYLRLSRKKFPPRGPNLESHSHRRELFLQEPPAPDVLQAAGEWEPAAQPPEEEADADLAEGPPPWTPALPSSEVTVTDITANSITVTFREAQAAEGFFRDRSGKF
CBX7 inh z-score: second read-out of CBX7 inh, no call of its own (marks repeat the call); z-score; measured here: z-score of CBX7 signal; some inactives read as strong as hits; reference of the scale not given here;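 same signal on another scale; lower means less binding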
Numbers without * were called inactive.

Order of values – CBX7 inh	CBX7 inh z-score
- Oc1ccc(F)cc1-c1cc(-c2ccccc2F)[nH]n1
→ 0.98	-0.47
- CCn1c(=O)c(=O)n(CC)c2cc(S(=O)(=O)N3CCc4ccccc43)ccc21
→ 0.98	-0.39
- Cc1ccc(-c2nn(C)c(=O)c3ccccc23)cc1CNC(=O)Nc1ccccc1
→ 1	0.49
- FC(F)(F)c1cc(-c2cccs2)nc(N2CCOCC2)n1
→ 1.4	3.1
- O=C(CSc1oc(-c2ccc(F)cc2)nc1S(=O)(=O)c1ccc(F)cc1)NCC1CCCO1 (stereo not drawn)
→ 1.1	0.094
- O=C(NCCc1ccccc1)C1CCC(=O)N1Cc1ccc(F)cc1 (stereo not drawn)
→ 1.1	1.6
- CC(C)Oc1ccc(C(=O)N2CC(=O)Nc3ccc(F)cc3C2c2ccccc2)cc1 (stereo not drawn)
→ 0.95	-1.4
- Cc1ccc(CSc2nnc(Cc3cc(=O)[nH]c(=O)[nH]3)n2-c2ccccc2)cc1
→ 1.1	1.9
- COc1ccc(CCNC(=O)Cn2cnc3sc4c(c3c2=O)CCCC4)cc1OC
→ 1	0.87
- O=c1[nH]c2ccccc2nc1Cc1cccc(Cl)c1
→ 1.1	1.3
- O=C(NCCN1CCCC1)C1CCC(=O)N1Cc1ccccc1Cl (stereo not drawn)
→ 0.9	-2.5
- Cc1ccc(-c2ncnn2-c2cccc(Cl)c2)cc1
→ 0.96	-0.53
- O=C(Nc1nc(-c2ccc(F)cc2)cs1)c1cccc(Oc2ccccc2)c1
→ 1.2	4.7
- CCCSCCCNC(=O)c1ccc2nc(N3CCC(C)CC3)sc2c1
→ 1.2	1.9
- CCOc1ccc(-n2c(Cc3cc(=O)[nH]c(=O)[nH]3)nnc2SCc2ccccc2F)cc1
→ 1	-0.035
- CCC(C(=O)NCCCN1CCN(c2cc(Cl)ccc2C)CC1)n1ncc2ccccc21 (stereo not drawn)
→ 0.83	-2.7
- COc1ccccc1Nc1ncc(C(=O)NC2CCCCC2)c2ccccc12
→ 1.1	1.1
- CCN(CC)CCCNC(=O)CN1C(=O)CSc2ccc(S(=O)(=O)N3CCCCC3)cc21
→ 1	1.8
- CCOc1ccccc1NC(=O)c1sc2ncn(CC(=O)N(CC)CC)c(=O)c2c1C
→ 0.98	-0.56
- COc1ccccc1N1C(=O)CC(N2CCN(c3cccc(C(F)(F)F)c3)CC2)C1=O (stereo not drawn)
→ 0.97	-0.51
- CCCCN(C)C(=O)c1cn(C2CCCC2)c(=O)c2c1c1ccccc1n2C
→ 1	-0.0082
- Cc1[nH]c2ccccc2c(=O)c1CN1CCC(C)CC1
→ 1.1	0.94
- CC1=Nc2cc(C(=O)N3CCc4ccccc4C3)ccc2Sc2c(C)ccc(C)c21
→ 0.91	-1.3
- COc1ccc(C(O)Cn2c(=N)n(CCN3CCCCC3)c3ccccc32)cc1 (stereo not drawn)
→ 1	2.4
- CC(C)OCCCNC(=O)C(=O)NCc1cccnc1
→ 1	0.97
- O=S(=O)(NC1CCCc2ccccc21)c1cnc[nH]1 (stereo not drawn)
→ 1	0.092
- COC(=O)CSc1nnc(-c2ccccc2)o1
→ 0.99	-0.087
- O=C(O)C1C2C=CC(C2)C1C(=O)Nc1cc(Cl)ccc1Cl (stereo not drawn)
→ 1.1	3.2
- Cc1ccccc1Cn1cnc2c(nnn2Cc2ccc(F)cc2)c1=O
→ 1.1	1.7
- COc1ccc(-c2nc(CS(=O)(=O)CC(=O)NCC(OC)OC)c(C)o2)cc1
→ 0.93	-0.16

13 consecutive records from above, for reference:
Order of values – CBX7 inh	CBX7 inh z-score
- CCN(CC)CCCNC(=O)CN1C(=O)CSc2ccc(S(=O)(=O)N3CCCCC3)cc21
→ 1	1.8
- CCOc1ccccc1NC(=O)c1sc2ncn(CC(=O)N(CC)CC)c(=O)c2c1C
→ 0.98	-0.56
- COc1ccccc1N1C(=O)CC(N2CCN(c3cccc(C(F)(F)F)c3)CC2)C1=O (stereo not drawn)
→ 0.97	-0.51
- CCCCN(C)C(=O)c1cn(C2CCCC2)c(=O)c2c1c1ccccc1n2C
→ 1	-0.0082
- Cc1[nH]c2ccccc2c(=O)c1CN1CCC(C)CC1
→ 1.1	0.94
- CC1=Nc2cc(C(=O)N3CCc4ccccc4C3)ccc2Sc2c(C)ccc(C)c21
→ 0.91	-1.3
- COc1ccc(C(O)Cn2c(=N)n(CCN3CCCCC3)c3ccccc32)cc1 (stereo not drawn)
→ 1	2.4
- CC(C)OCCCNC(=O)C(=O)NCc1cccnc1
→ 1	0.97
- O=S(=O)(NC1CCCc2ccccc21)c1cnc[nH]1 (stereo not drawn)
→ 1	0.092
- COC(=O)CSc1nnc(-c2ccccc2)o1
→ 0.99	-0.087
- O=C(O)C1C2C=CC(C2)C1C(=O)Nc1cc(Cl)ccc1Cl (stereo not drawn)
→ 1.1	3.2
- Cc1ccccc1Cn1cnc2c(nnn2Cc2ccc(F)cc2)c1=O
→ 1.1	1.7
- COc1ccc(-c2nc(CS(=O)(=O)CC(=O)NCC(OC)OC)c(C)o2)cc1
→ 0.93	-0.16

Next results follow.
Order of values – CBX7 inh	CBX7 inh z-score
- CCC1Oc2ccc(C)cc2N(CC(=O)NC2CCCC(C)C2C)C1=O (stereo not drawn)
→ 1	0.067
- CC1CCN(C(=O)c2cc3ccccn3n2)CC1
→ 1.2	1.4
- Cc1ccc(-c2nc3ccccc3o2)cc1NC(=O)c1cccnc1
→ 1	0.42
- CN(C)c1ccc(C(=O)Nc2ccc(-c3nc4ccccc4o3)cc2)cc1
→ 1.2	1.6

Assay outcomes as filed in PubChem.

A portion of the library, so the mix of outcomes need not match the whole.
